motility: Vibrio cholerae motility inhibitors, OD read-out (AID 588778). 10,000 tested, under 10 active. inhibition, %, or IC50 in µg/mL where a hit was titrated. Vibrio cholerae motility, OD read-out; higher % means a stronger effect; test concentration not given here; primary cut-off and reference of the scale not given here; strong numbers were not always called active; in the data active = confirmed in a dose series
motility viability: also measured in motility; calls as there; inhibition, %; measured here: bacterial viability at 10 ug/mL;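 higher means fewer living bacteria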
An asterisk follows results filed as active; i = inactive. A portion of the library. The share of hits here may be higher or lower than overall.

SMILES	motility	motility viability
CC(=O)Cc1nsc(NC(=O)c2csc3c2CCCC3)n1	0%	-6
O=C(Nc1ccc(F)cc1)c1cccc(Oc2ccc([N+](=O)[O-])cc2C(F)(F)F)c1	-3%	-1
Cc1cc(NC(=O)CN2C(=O)CN(c3ccc(Br)cc3)C2=O)no1	-8%	-6
NC(=O)c1ccsc1NC(=O)c1cc(-c2ccccc2)nc2ccccc12	-7%	-2
Cc1ccc(Cl)c(NC(=S)N(CCCN2CCOCC2)Cc2ccco2)c1	2%	-6
O=C(c1cccc(COc2cc(Cl)ccc2Cl)c1)N1CCCC1	12%	3
O=C(c1c(F)cccc1F)N1CCN(C(c2ccccc2)c2ccccc2)CC1	12%	-3
CC(C)N(C(C)C)S(=O)(=O)c1ccc(NC2CCCCC2)nc1	9%	-1
COc1ccc(-c2cc(=O)c3cc(OC(=O)c4cccs4)ccc3o2)cc1	3%	-5
Cc1ccc(S(=O)(=O)CCc2nnc(N)s2)cc1C	4%	-2
Cc1nn(Cc2ccccc2)c(C)c1C(=O)NS(=O)(=O)c1ccccc1Cl	-27%	-14
O=C(NC1CCCC1)c1ccc(CSc2ccc(Cl)cc2)cc1	-5%	-7
CCC1S/C(=N/N=C/c2ccco2)N(c2ccc(F)cc2)C1=O (configuration not stated)	-3%	-4
COc1ccc(CC(=O)N2CCCCCC2)cc1OC	11%	6
O=C(CSCC(=O)N1CCN(c2ccccc2)CC1)Nc1ccc2ccccc2c1	-18%	-5
Cc1cc(C)nc(SCC(=O)Nc2ccc(F)c(F)c2F)n1	7%	6
CSc1nsc(NC(=O)Cc2ccccc2)n1	16%	32
O=C(Nc1c(F)c(F)c(F)c(F)c1F)C(c1ccccc1)c1ccccc1	-20%	-9
CCOC(=O)C(=O)N(CCC#N)CCC#N	-11%	-4
CCOC(=O)c1sc(NC(=O)C2C3C=CC(C3)C2C(=O)O)nc1C (configuration not stated)	-10%	3
O=C1c2cccc3cccc(c23)C(=O)N1CCCC(=O)n1nnc2ccccc21	-4%	-2
N#CC1=C(N)N2C(=C(C#N)C13CCN(Cc1ccccc1)CC3)Nc1ccccc12	5%	-3
CCOC(=O)C1=C(N)Oc2cc(O)ccc2C1c1ccc(F)cc1F (configuration not stated)	11%	3
CCOc1ccc(C2=Cc3cc(OC)c(OC)cc3C(C(Cl)(Cl)Cl)O2)cc1 (configuration not stated)	-19%	0
COc1ccc(NC(=O)C(N)=O)cc1Cl	-6%	-1
Cc1ccc(C(=O)C(OC(=O)CNC(=O)c2cccs2)c2ccccc2)cc1 (configuration not stated)	1%	-2
Cc1sc2nc(SCCCC(=O)Nc3ccc(S(N)(=O)=O)cc3)nc(N)c2c1C	-4%	31
CSc1nc(N)nc2sc3c(O)cc(=O)[nH]c3c12	-5%	-2
CC(=O)N(Cc1cc2ccc(C)cc2[nH]c1=O)c1ccc(C)cc1C	-17%	-2
CCOCC(=O)N(CC)C1CCCCC1	0%	-9
COc1ccc(Cl)cc1NC(=O)C(=O)O	1%	-7
O=c1c(O)c(-c2cccs2)oc2ccc(Cl)cc12	88%	10
Cc1nn(Cc2cccc(C(F)(F)F)c2)c(C)c1[N+](=O)[O-]	15%	-1
O=C(O)c1ccc(Cl)c(NC(=S)NC(=O)c2cc3ccccc3o2)c1	-3%	-5
C=CCNC(=S)NNC(=O)Cc1cccs1	6%	1
CCOC(=O)c1c(C)[nH]c(C(=O)CSc2ncnc3sc(C)c(C)c23)c1C	-6%	-1
Cc1occc1C(=O)Nc1ccc(Br)cc1F	-3%	-5
O=C(CSc1ccccc1C(=O)O)Nc1ccnc2ccccc12	5%	3
CCOC(=O)c1cc(-c2nc(-c3ccccc3)cs2)c(SC)[nH]c1=O	-6%	-2
O=C(NCc1ccccn1)C1CC(c2cccc(Br)c2)=NO1 (configuration not stated)	6%	8
O=C(COc1ccc(Br)cc1)NC(=S)Nc1cccc2nsnc12	-13%	-6
CCC(=O)NC(/C(C#N)=C1\NC(C)(C)Cc2ccccc21)(C(F)(F)F)C(F)(F)F	12%	3
COc1ccc(OC)c(S(=O)(=O)NNC(=S)Nc2cccc(C(F)(F)F)c2)c1	-5%	3
N=C=C1C(=S)NC2=C(C(=O)CCC2)C1Cc1ccccc1 (configuration not stated)	-1%	-1
N#CCCN(CCC#N)C(=O)c1ccccc1Oc1ccccc1	57%	12

One compound at a time, from the list above. Values in the order: motility | motility viability
O=C(O)c1ccc(Cl)c(NC(=S)NC(=O)c2cc3ccccc3o2)c1 reads -3% | -5
O=C(CSc1ccccc1C(=O)O)Nc1ccnc2ccccc12 reads 5% | 3

Further structures
SMILES	motility	motility viability
CCOC(=O)c1ccc(NC(=O)CSc2nnc3ccccn23)cc1	-2%	-5
O=C(CSc1ccc(F)cc1)Nc1ccccc1OC(F)F	9%	-1
CCOC(=O)Cn1c(=O)n(CC(=O)OCC)c2ccccc21	7%	-6
Cc1ccc(N2CCN(C(=O)N3CCOCC3)CC2)cc1C	3%	3
O=c1[nH]nc(CSCc2ccccc2Cl)[nH]1	4%	17
CC12CCC(C(=O)O)(c3nc4c(ccc5ncccc54)nc31)C2(C)C (configuration not stated)	9%	-5
O=C(Cc1cccs1)NC12CC3CC(CC(C3)C1)C2	9%	0
O=C1CC(N2CCOCC2)C(=O)N1c1ccccc1[N+](=O)[O-] (configuration not stated)	18%	19
Cc1cc(=O)oc2cc(OCCSCc3ccco3)ccc12	6%	1
O=Cc1cc([N+](=O)[O-])ccc1Sc1ncccn1	10%	28
O=c1c2cc3c(=O)n(CCCn4ccnc4)c(=O)c3cc2c(=O)n1CCCn1ccnc1	11%	-7
CCN(CC)C(=O)c1sc(NC(=O)c2ccc(OC)cc2OC)c(C(N)=O)c1C	-8%	-10
Cn1cc(Br)c(C(=O)Nc2sc3c(c2C(N)=O)CCC3)n1	16%	0
COc1ccc(CCNc2nc(S(=O)(=O)c3ccc(C)cc3)c(Cl)s2)cc1OC	-2%	6
Cc1ccc(NC(=S)c2ccnc3ccccc23)cc1	14%	3
CCOC(=O)CSc1nnc(CSc2nc(N)c3c(C)c(C)sc3n2)n1-c1ccccc1	-1%	0
CCCOCC1CC2(SC(=Nc3ccc(C)cc3)NC2=O)C(=O)O1 (configuration not stated)	-7%	-6
Cc1onc(-c2ccccc2Cl)c1C(=O)Nc1ccc(S(=O)(=O)Nc2nccs2)cc1	-12%	1
O=C(Cc1csc2nc3sc4c(c3c(=O)n12)CCC4)N(CCO)CCO	0%	-1
COCCCNC(=O)c1cc(C)nc2ccc(F)cc12	8%	2
O=C(O)CCCCC1SCC2NC(=O)NC21 (configuration not stated)	6%	2
Cc1c(Cl)c([N+](=O)[O-])nn1CC(=O)NCc1ccco1	3%	-4
CCCCOC(=O)Nc1nnc(CC(=O)NCc2ccccc2)s1	16%	28
CCOC(=O)C(=O)Nc1ccc([N+](=O)[O-])cc1C	10%	-4
CC(NC(=S)NCc1ccco1)C1CCCO1 (configuration not stated)	-4%	-9
CCN1CCCC(OC(=O)NC2CCCCC2)C1 (configuration not stated)	10%	-4
Nc1nncn1C(=O)c1cc(Br)ccc1Cl	1%	8
CCOC(=O)c1ccc(NC(=S)NNC(=O)c2oc3ccccc3c2C)cc1	13%	4
CC(=O)Nc1ccc(OC(=O)c2ccc(Oc3ccc([N+](=O)[O-])cc3)cc2)cc1	-5%	0
O=C(O)c1cn[nH]c1-c1ccc(Br)cc1	-3%	-3
CC(C)CN1C(=O)c2ccc(NC(=O)c3cccs3)cc2C1=O	-7%	4
Cc1cc(NC(=O)CSc2nnc(Cc3ccccc3)o2)no1	-43%	-9
CNC(=S)NCCN1CCCCC1	6%	33
CC(C)n1c(/C=C/c2ccc(F)cc2)nc2ccccc21	11%	2
COC(=O)C1=C(C)NC(=S)NC1c1cn(-c2ccccc2)nc1-c1cccs1 (configuration not stated)	-5%	-3
CC(C)(Oc1ccc(Cl)cc1)C(=O)Nc1ccc(S(N)(=O)=O)cc1	-7%	-6
COc1ccccc1N=C(N)Nc1cccc(C(F)(F)F)c1	30%	10
N#Cc1c(NC2(C(F)(F)F)N=C3SCCN3C2=O)sc2c1CCCC2 (configuration not stated)	9%	-3
CCc1sc(NC(=O)c2cc(OC)c(OC)cc2[N+](=O)[O-])nc1-c1ccccc1	-13%	-5
CN(c1ccc(C(=O)Nc2ccc(Br)c(Cl)c2)cc1)S(C)(=O)=O	14%	4
CC(=O)N(C)c1ccc(OCC(O)COc2ccc(N(C)C(C)=O)cc2)cc1	16%	10
CCOC(=O)CCC(=O)Nc1ccc(F)c(Cl)c1	10%	0
CC(=O)N1N=C(c2ccccc2)OC12CCCCCC2	2%	2
CCn1c(Cc2ccccc2)nnc1Sc1ccc(C=O)o1	-2%	-1
COc1ccc(CCNC(=S)Nc2cc(C)cc(C)n2)cc1OC	11%	3
O=C(CS)Nc1ccc(C(=O)O)cc1	14%	8
COc1ccc(C(=O)c2ccccc2)cc1Br	5%	2
Cc1c(NC(=O)C2CC(c3c(F)cccc3Cl)=NO2)c(=O)n(-c2ccccc2)n1C (configuration not stated)	0%	-4
CCn1nnnc1-c1ccc(OC)c(S(=O)(=O)Nc2c(C)n(C)n(-c3ccccc3)c2=O)c1	-6%	-3
CCN(CC)CCN1C(=O)C(O)=C(C(=O)/C=C/c2ccccc2)C1c1ccc([N+](=O)[O-])cc1 (configuration not stated)	17%	35
CCCC(NC(=O)c1ccco1)C(=O)O (configuration not stated)	5%	2
O=C(Nc1ccc2oc(-c3cncc(Br)c3)nc2c1)c1cccs1	2%	-7
CC1CN(c2cc(N)c([N+](=O)[O-])cc2F)CC(C)N1 (configuration not stated)	59%	17
Cc1cc(OCCCNCCO)ccc1C(C)C	-3%	3
Nc1ccc(Cl)cc1C(=O)c1ccccc1	16%	23
COc1ccc(C(=O)NCCc2c[nH]c3ccccc23)cc1[N+](=O)[O-]	6%	3
Cc1nnc(NC(=O)CSc2nnnn2Cc2ccccc2)s1	-15%	-6
COc1ccc(OCC#CCOc2ccccc2Br)cc1	-12%	-5
CCOc1ccc2nc(NC(=S)NC(=O)c3cccc(C)c3OC)sc2c1	2%	-6
Ic1ccc(OC2CCCCO2)cc1 (configuration not stated)	6%	-5

Rewritten with each value named: part of the list above
CCN(CC)CCN1C(=O)C(O)=C(C(=O)/C=C/c2ccccc2)C1c1ccc([N+](=O)[O-])cc1 (configuration not stated)
  motility: 17%
  motility viability: 35
CCCC(NC(=O)c1ccco1)C(=O)O (configuration not stated)
  motility: 5%
  motility viability: 2
O=C(Nc1ccc2oc(-c3cncc(Br)c3)nc2c1)c1cccs1
  motility: 2%
  motility viability: -7
CC1CN(c2cc(N)c([N+](=O)[O-])cc2F)CC(C)N1 (configuration not stated)
  motility: 59%
  motility viability: 17

The listing picks up with the 6 entries that preceded the break.
SMILES	motility	motility viability
Nc1ccc(Cl)cc1C(=O)c1ccccc1	16%	23
COc1ccc(C(=O)NCCc2c[nH]c3ccccc23)cc1[N+](=O)[O-]	6%	3
Cc1nnc(NC(=O)CSc2nnnn2Cc2ccccc2)s1	-15%	-6
COc1ccc(OCC#CCOc2ccccc2Br)cc1	-12%	-5
CCOc1ccc2nc(NC(=S)NC(=O)c3cccc(C)c3OC)sc2c1	2%	-6
Ic1ccc(OC2CCCCO2)cc1 (configuration not stated)	6%	-5
Clc1ccc(-c2nc3ncccc3o2)cc1	17%	24
Brc1cccc(-c2nnco2)c1	-6%	-8
CC(C)(C)N(Cc1ccccc1)C(=O)c1cc(Br)ccc1Cl	10%	1
O=C(CCN1CCOCC1)N1c2ccccc2Sc2ccc(Cl)cc21	0%	-4
CCC(=O)OCC12COC3c4ccccc4OC(C)(CC1C)C3C2C (configuration not stated)	-16%	-11
CC(NC(=S)Nc1ccc(F)c(Cl)c1)C1CCCO1 (configuration not stated)	0%	3
NC(=O)c1cc(-c2ccccc2)sc1NC(=O)C(Cc1ccccc1)N1C(=O)c2ccccc2C1=O (configuration not stated)	-26%	-17
CCC(=O)NC(=S)Nc1cc(C)c(C)cc1Br	-10%	4
Nc1cccc(Cl)c1N1CCOCC1	68%	25
COc1ccc(-c2csc(NNC(C)=O)n2)cc1	-6%	-2
COc1cc2c(cc1/C=C/[N+](=O)[O-])OCO2	i	72
Cc1cccc(C(C)C)c1NS(=O)(=O)c1ccc(Br)s1	5%	-5
COc1cccc(CNc2ccc3c(c2)ncn3C)c1OC	11%	34
Cc1nc2ccc(NC(=S)N3CCC(c4ccccc4)C3)cc2nc1C (configuration not stated)	2%	6
O=C(CN1C(=O)c2ccccc2C1=O)Nn1cnnc1	4%	-6
Cc1ccc(N2OC3C(=O)NC(=O)C3C2c2ccco2)cc1 (configuration not stated)	9%	-1
COc1ccc(OC)c(C(=O)C2COC(=O)C2)c1 (configuration not stated)	2%	8
Cc1ccc(S(=O)(=O)N/N=C/c2c(Cl)cccc2Cl)cc1[N+](=O)[O-]	71%	30
O=C(CSc1nc2ccccc2c(=O)[nH]1)Nc1cccc2nsnc12	0%	-5
CCOC(=O)c1cnc2ccc(F)cc2c1NCc1ccco1	3%	2
Cc1nc2n(CC(=O)c3cccs3)c3ccccc3n2n1	-27%	-4
Cc1ccc(C(=O)NCC(=O)NCC(=O)OCc2cccc(C(=O)Oc3ccccc3)c2)cc1	-3%	16
CCOC(=O)C1=C(C)N(c2ccccc2)C(=O)C1CC(=O)Nc1ccc(C)cc1C (configuration not stated)	-14%	-3
Cc1cc(Br)cc(C)c1NC(=O)C(C)(C)C	9%	19
Cc1cc(C)nc(SC/C=C/c2ccccc2)n1	41%	11
Nc1nc(SCC(=O)N2CCCC2)[nH]c(=O)c1-c1ccccc1	0%	-2

Bioassay records deposited in PubChem BioAssay by Southern Research Institute.
